# Mtb H37Rv: M. tuberculosis H37Rv growth inhibitors, H37Rv strain (AID 1626) | 220,000 tested, 0.95% active | M. tuberculosis H37Rv growth inhibition; higher % means a stronger effect | inhibition, % at 10 µM, or IC50 in µM where a hit was titrated;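 active means confirmed in a dose series; inconclusive means inhibition above 80% but not taken into the dose series; inactive means below 80% or under 30% at every dose of the series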;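 further: bacteria incubated seven days before Alamar blue readout; 0% = bacteria only wells and 100% = bacteria with antibiotic wells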
# Mtb betalactam: beta-lactam sensitization of Mtb H37Rv, H37Rv | M. tuberculosis H37Rv growth with meropenem, percent inhibition; hits of this screen are not shown here | 330,000 tested, 0.27% active | inhibition, % at 25 µM;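 active means about 74% or more and at least 40 points above the plate without the antibiotic, then above 30% in a dose series; inconclusive means first-round hits that could not be retested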;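 further: growth measured after seven days incubation then overnight dye step; 0% = bacteria only wells and 100% = bacteria with antibiotic; twin plates without the antibiotic show which effects depend on it; some results filed as inactive read as strong as hits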
# YopH PTP inh: YopH tyrosine phosphatase inhibitors, primary screen, biochemical, fluorescence Ex485/Em525. AID 898, 2007. inhibition, %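 (about 10 µM by stock and volumes)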. YopH tyrosine phosphatase [Yersinia enterocolitica]. 140,000 tested, 0.16% active;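 active means inhibition of 50% or more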;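 further: controls were vehicle for no effect and minimum signal wells for full effect; inactives centre near -20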
# RecA splice inh: Mtb RecA intein splicing inhibitors, primary screen, biochemical, fluorescence, HTS; 290,000 tested, 0.75% active; Protein RecA (Mycobacterium tuberculosis (strain ATCC 25618 / H37Rv)), P9WHJ3; cell-free RecA intein splicing; inhibition, %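 (about 9 µM by stock and volumes)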; in the data active means inhibition above about 30%; inconclusive means no clear call, values can overlap the other calls;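 further: 0% = vehicle wells and 100% = reference inhibitor control wells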
# Target sequence (P9WHJ3 whole entry, looked up, canonical isoform): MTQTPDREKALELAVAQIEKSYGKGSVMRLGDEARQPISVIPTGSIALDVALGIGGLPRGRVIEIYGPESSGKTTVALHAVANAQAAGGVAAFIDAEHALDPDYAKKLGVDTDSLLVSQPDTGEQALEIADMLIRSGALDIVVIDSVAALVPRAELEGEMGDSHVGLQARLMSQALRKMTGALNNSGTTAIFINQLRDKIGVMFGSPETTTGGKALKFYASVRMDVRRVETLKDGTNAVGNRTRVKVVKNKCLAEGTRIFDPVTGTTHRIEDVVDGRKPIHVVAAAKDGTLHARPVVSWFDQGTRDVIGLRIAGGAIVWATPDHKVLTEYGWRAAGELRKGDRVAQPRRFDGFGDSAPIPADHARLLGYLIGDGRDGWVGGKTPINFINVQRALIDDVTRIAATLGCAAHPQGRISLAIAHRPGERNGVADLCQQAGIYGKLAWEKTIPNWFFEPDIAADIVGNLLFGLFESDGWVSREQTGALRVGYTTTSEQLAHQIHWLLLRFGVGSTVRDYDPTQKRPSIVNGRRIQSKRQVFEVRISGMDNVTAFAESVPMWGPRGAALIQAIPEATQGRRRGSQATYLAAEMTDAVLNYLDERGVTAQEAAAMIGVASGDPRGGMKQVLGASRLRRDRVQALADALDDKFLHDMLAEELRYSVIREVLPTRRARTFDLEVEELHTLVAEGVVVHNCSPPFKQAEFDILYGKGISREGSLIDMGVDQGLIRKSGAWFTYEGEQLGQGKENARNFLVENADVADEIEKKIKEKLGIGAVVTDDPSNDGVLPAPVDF
# Arbovirus anti: antivirals against arbovirus infection, primary screen, cell-based, full library, 10K replicate subset; arbovirus infection cell-based antiviral screen; inhibition, % at 10 µM; 200,000 tested, 0.37% active; AID 1251, 2008;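 active means inhibition from about 30%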;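 further: bluetongue infection of BSR cells; cell survival read as ATP light after 72 h; 0% = infected wells without compound and 100% = uninfected wells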
# Arbovirus anti repeat: recorded beside Arbovirus anti, whose call it bears; inhibition, %; measured here: 10K subset replicate screen; many hits read low in the repeat;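 first of two repeat runs on a subset; 0% = infected and 100% = uninfected wells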
# Numbers without * were called inactive; ? = inconclusive; nt = no result given. Only part of the results is shown; the hit share may differ from the screen's.
SMILES,Mtb H37Rv,Mtb betalactam,YopH PTP inh,RecA splice inh,Arbovirus anti,others
CCCCCC1CC(=O)C=C(C)C1C(=O)OC (configuration not stated),-5.7%,-3.9,nt,-1.3,nt,
COc1ccc(CC(=O)NCc2n[nH]c(=S)n2-c2ccc(F)cc2)cc1,-0.1%,-6.6,nt,-2.1,-0.9,
CCOC(=O)c1ccccc1NC(=O)CSc1ccccc1,1.6%,38.8,35.2,3.9,-4.0,
O=C(c1cc(-c2ccc(O)cc2)on1)N1CCc2ccccc2C1,6.7%,19.1,-28.4,10.3,-22.6,Arbovirus anti repeat=-19.9
CCC(C(=O)Nc1c(C)cc(C)cc1C)N1CCCCCC1 (configuration not stated),nt,0.2,nt,1.2,nt,
O=C(N/N=C/c1cccs1)c1cnccn1,-4.8%,2.6,-9.1,-0.5,-9.0,
O=C(NCCCN1CCOCC1)C(c1ccccc1)c1ccccc1,nt,-12.1,nt,-3.6,nt,
CC(C)(CSc1nncn1N)NS(=O)(=O)c1ccc(Cl)cc1,6.5%,-7.2,-3.7,3.5,8.8,
COc1cc2c(cc1OC)[C@H](C)N(C(=O)NCc1ccccc1)CC2,nt,-11.2,nt,-2.6,nt,
O=C(NCc1ccc2c(c1)OCO2)c1ccc(CS(=O)(=O)c2cccc(C(F)(F)F)c2)o1,nt,-2.3,-9.0,0.3,-6.0,
O=C1NC(=O)N(CCc2ccc(F)cc2)C(=O)/C1=C\C=C\c1ccccc1,1.1%,nt,nt,nt,-30.9,
CC(C)[C@H](NC(=O)N1CC(=O)Nc2ccccc21)C(=O)N1CCC(C(=O)O)CC1,nt,-4.5,nt,-0.2,nt,
Cc1nnc(SCC(=O)NCc2cccs2)n1-c1ccccc1,-4.3%,-3.6,2.5,-2.8,0.0,
S=c1[nH]nc(C2CC2)n1Cc1ccco1,-5.6%,2.5,1.6,-2.1,-10.3,
S=C(Nc1ccccc1)N1CCn2c(nc3ccccc32)C1,-2.2%,6.5,nt,-1.1,5.2,
CC1c2ccsc2CCN1S(=O)(=O)c1ccccc1 (configuration not stated),0.8%,-12.7,nt,2.0,nt,
Cc1cc(O)c2c(C)c(CC(=O)N3CCN(C(=O)C4COc5ccccc5O4)CC3)c(=O)oc2c1 (configuration not stated),nt,2.5,nt,-1.2,nt,
CCNC(=S)NNC(=O)CSc1nc2ccccc2[nH]1,4.8%,8.8,nt,-0.2,3.7,
CCc1ccc(NC(=O)c2cc(Br)ccc2Br)cc1,-1.5%,38.4,nt,2.5,-6.4,
CCCC1(CCC)C(=O)NC(=NCCc2ccc(OC)c(OC)c2)NC1=O,3.8%,12.1,-15.8,0.7,6.5,
Cc1ccc(S(=O)(=O)c2nc(-c3ccc(F)cc3)oc2SCC(=O)NCC2CCCO2)cc1 (configuration not stated),-0.6%,?,-12.5,0.6,12.5,Arbovirus anti repeat=4.1
O=c1cc(-c2ccccc2)nc(SCCOc2ccccc2Cl)[nH]1,nt,6.2,nt,1.8,15.6,
O=C1CSC(=Nc2ccccc2[N+](=O)[O-])N1,-2.3%,2.2,nt,-1.2,1.5,
CC(=O)c1nn(-c2ccc(Cl)cc2)c(=O)[nH]c1=O,nt,8.4,nt,-2.3,nt,
CC1(C)NC(=O)N(CCCOc2ccc(Br)cc2Cl)C1=O,0.0%,10.5,-13.8,-0.8,-11.7,
O=C(NCCc1csc(-c2cccnc2)n1)c1ccccc1,3.6%,-6.1,-33.0,-5.3,4.4,
CCCN(CC(=O)Nc1cc(Cl)cc(Cl)c1)CC(=O)Nc1ccc(F)c(F)c1F,8.7%,7.2,-44.4,2.5,-44.6,
Cc1nc2nc(C)c(CCC(=O)N3CCOCC3)c(C)n2n1,0.0%,nt,-48.8,3.1,2.9,
COc1ccc(/C=C/c2nnc(NC(=O)CC(C)C)s2)cc1,-10.1%,-3.6,nt,-3.2,nt,
Cc1ccc([N+](=O)[O-])cc1NC(=O)c1ccc(C(C)(C)C)cc1,8.1%,-1.2,-31.6,6.7,-13.5,
O=C(N/N=C/c1cccc(Cl)c1)c1c(O)c2c([nH]c1=O)CCCC2,-2.1%,-4.4,nt,-4.1,nt,
O=C1C=C(Nc2cccc(Cl)c2)CC(c2ccco2)C1 (configuration not stated),-4.3%,3.6,-23.0,-4.2,-15.9,
COc1ccc(-c2[nH]ncc2CN2CCC(N3CCSCC3)CC2)c(F)c1,-0.4%,-3.2,nt,0.8,-2.8,
CCc1cccc(C)c1NC(=O)CSc1nc2ccccc2n1CC(=O)N(C)C,-9.3%,6.5,6.8,nt,9.3,
O=C(O)c1cccnc1Br,1.4%,3.8,nt,-0.3,5.5,
CC1CCN(C(=O)CNC(=O)c2ccc(Cl)cc2Cl)CC1,3.0%,-4.4,-12.9,-0.6,-2.5,
O=C1C(=O)N(c2ccccc2)c2ccccc21,-4.9%,98.6,-20.7,0.0,6.6,
COC(=O)N/N=C/c1cc([N+](=O)[O-])cc(Br)c1O,-8.0%,-6.6,-33.1,4.2,-2.6,
CCN(C(=O)C1=COCCO1)c1nc2c(C)cccc2s1,nt,-4.4,nt,4.4,nt,
Cn1c(=NC(=O)CS(=O)(=O)c2ccccc2)sc2ccccc21,nt,-14.9,nt,-0.9,nt,
O=C(CN1CCN(S(=O)(=O)c2ccccc2)CC1)NC(=O)NCc1ccccc1,2.9%,-2.0,-36.6,-0.1,2.2,
CC(C)N1CCN(Cc2ccc(-c3ccccc3Cl)o2)CC1CCO (configuration not stated),6.9%,6.4,nt,-0.5,-17.0,
CCCc1nc2oc3c(=O)[nH]cnc3c2c2c1COC(C)(C)C2,-3.0%,-9.0,nt,1.7,nt,
Cc1ccc(CNc2ncnc3cc(Cl)ccc23)cc1,nt,1.2,nt,1.3,nt,
O=C(NC1CC1)C(=O)c1c(-c2ccccc2)[nH]c2ccccc12,-1.2%,-3.7,-16.8,-3.6,-2.5,
Cn1nc(C(F)(F)F)c(CO)c1Sc1ccc(F)cc1,0.4%,1.3,nt,0.7,7.3,
CC1CCCC(C)N1C(=O)c1cccc2c1-c1ccccc1/C2=N/O (configuration not stated),5.2%,-16.5,-23.3,nt,-2.9,
Cc1ccc(SCc2ccc(C(=O)Nc3ccccc3C(=O)NC(C)C)cc2)cc1,0.5%,-1.2,-26.9,-1.4,-17.6,
Cc1cc(C)cc(NC(=O)N2CCN(S(C)(=O)=O)CC2)c1,8.8%,0.3,nt,-3.0,2.0,
O=C(Nc1cc(C(F)(F)F)ccc1Cl)C(Sc1nnc(-c2cccs2)o1)c1ccccc1 (configuration not stated),-7.4%,15.1,-8.4,7.7,11.6,
CCC(=O)NCCCCCCNC(=O)CC,-1.4%,2.9,-30.2,-2.9,6.9,
O=C(CSC1=NCCS1)Nc1ccnc2ccccc12,2.5%,2.5,1.3,7.5,9.4,
CCOC(=O)C(C)Sc1nnc(CNC(=O)c2ccc(OC)cc2)n1C1CCCCC1 (configuration not stated),0.5%,4.5,-35.9,0.2,5.7,
Cc1ccc(C)c(CN2C(=O)COc3ccccc32)c1,nt,6.0,nt,1.9,nt,
Cc1c(C(=O)NCc2ccc3c(c2)OCO3)cccc1[N+](=O)[O-],13.0%,6.2,-43.5,-1.5,-14.1,
CCCCN(CCCC)CCNC(=O)c1cn(C)c2ccc(S(=O)(=O)N3CCCC3)cc2c1=O,nt,1.2,nt,-1.9,nt,
O=C(NCCn1ccc2ccccc21)c1ccc(S(=O)(=O)N2CCCCC2)cc1,6.3%,-6.5,-25.9,4.7,-7.1,Arbovirus anti repeat=-12.1
Cc1ccc(S(=O)(=O)NC(=O)NC(=O)N(C)S(=O)(=O)c2ccc(C)cc2)cc1,12.6%,-0.5,nt,-1.1,20.0,
CC(NC(=O)CCc1nnc(CCCc2ccccc2)o1)c1ccccc1 (configuration not stated),-6.7%,-3.3,nt,0.7,6.7,
O=C(NCc1ccccc1C(F)(F)F)C1CCC(=O)N(C2CC2)C1 (configuration not stated),nt,-8.2,nt,1.2,nt,

# Next compounds:
SMILES,Mtb H37Rv,Mtb betalactam,YopH PTP inh,RecA splice inh,Arbovirus anti,others
CCOc1ccccc1NC(=S)Nc1ncccc1C,-0.4%,57.1,-20.1,3.8,-5.0,
Cc1cc(C)c(C)c(S(=O)(=O)NC2CCCCC2)c1C,nt,3.2,nt,5.6,nt,
COc1ccc(C(=O)CSC2=NS(=O)(=O)c3cc(Cl)ccc3N2)cc1,nt,-7.3,nt,-2.2,nt,
CC(=O)N1c2ccc(S(=O)(=O)NCCC(=O)N3CCC(C)CC3)cc2CC1C (configuration not stated),nt,1.2,nt,-2.1,nt,
CCOC(=O)c1cccc(NS(=O)(=O)Cc2ccccc2)c1,-7.3%,-3.5,nt,1.5,15.1,
COc1ccc(C(=O)NC2CCN(CC(=O)N3CCCCC3)CC2)cc1,nt,-1.5,nt,-0.1,nt,
Cc1ccc(Nc2nc3c([nH]2)c(=O)[nH]c(=O)n3C)cc1,nt,5.6,-2.2,-4.2,3.0,
COc1cccc(NC(=O)CSc2nc(C)cs2)c1,7.9%,0.6,3.9,0.3,0.3,
CCCOc1ccc(/C=C/C(=O)NC2CCCCC2)cc1,nt,66.0,nt,1.7,nt,
Cc1c(OCC(=O)NCCCN2CCOCC2)ccc2c3c(c(=O)oc12)CCCC3,nt,0.4,nt,-2.1,nt,
CC(=O)c1cccc(NC(=O)c2c(F)c(F)c(F)c(F)c2F)c1,0.2%,7.7,-32.1,1.5,2.2,Arbovirus anti repeat=5.4
C/C=C\C=C/C(=O)Nc1cccc(C2=NOC3(C2)C[C@H](C(N)=O)N(C(=O)Cc2ccc([N+](=O)[O-])cc2)C3)c1 (some centres not stated),-5.4%,-2.6,nt,0.7,nt,
CC1=C(C(=O)OCc2ccc3c(c2)OCO3)C(c2ccc(F)cc2)NC(=O)N1 (configuration not stated),-4.0%,3.0,-54.1,8.6,16.7,
CCC(c1nnc(SCC(=O)Nc2nnc(-c3ccccc3)o2)n1Cc1ccccc1)N(C)C (configuration not stated),1.3%,2.1,-27.3,2.4,-4.3,
Cc1ccc(NC(=O)c2ccc(Cl)c(N3C(=O)C=CC3=O)c2)cc1,-12.1%,-0.2,-25.6,7.5,1.9,
CCN(CC)c1ccc(/C=N/NC(=O)Cc2ccc(OC)c(OC)c2)cc1,-4.9%,7.4,nt,1.7,nt,
O=C(O)c1ccc(Nc2cc(Cl)c3nonc3c2[N+](=O)[O-])cc1,-7.5%,-2.0,nt,nt,22.0,
Cc1ccc(-c2nnc(Nc3ccc4c(c3)OCO4)c3ccccc23)cc1S(N)(=O)=O,0.6%,-4.3,-10.8,0.5,-15.6,
S=C(NCCN1CCOCC1)Nc1cccc2ccccc12,-2.4%,-5.2,-15.5,0.2,5.7,
Cc1ccccc1S(=O)(=O)Cc1ccc(C(=O)NCCCN2CCCC2)o1,nt,-0.5,nt,0.8,nt,

# Brought forward from above: 6 compounds, then new ones.
SMILES,Mtb H37Rv,Mtb betalactam,YopH PTP inh,RecA splice inh,Arbovirus anti,others
Cc1ccc(NC(=O)c2ccc(Cl)c(N3C(=O)C=CC3=O)c2)cc1,-12.1%,-0.2,-25.6,7.5,1.9,
CCN(CC)c1ccc(/C=N/NC(=O)Cc2ccc(OC)c(OC)c2)cc1,-4.9%,7.4,nt,1.7,nt,
O=C(O)c1ccc(Nc2cc(Cl)c3nonc3c2[N+](=O)[O-])cc1,-7.5%,-2.0,nt,nt,22.0,
Cc1ccc(-c2nnc(Nc3ccc4c(c3)OCO4)c3ccccc23)cc1S(N)(=O)=O,0.6%,-4.3,-10.8,0.5,-15.6,
S=C(NCCN1CCOCC1)Nc1cccc2ccccc12,-2.4%,-5.2,-15.5,0.2,5.7,
Cc1ccccc1S(=O)(=O)Cc1ccc(C(=O)NCCCN2CCCC2)o1,nt,-0.5,nt,0.8,nt,
O=C(O)CCCC(=O)N1CC(=O)Nc2ccccc21,-0.7%,-2.1,-27.1,-1.7,0.1,
COc1ccc(-n2c(CNc3ccc(C)cc3)nnc2SCC(=O)Nc2nc(-c3ccccc3)cs2)cc1,3.4%,88.7,-1.6,-0.8,-38.4,
COC(=O)CC(N)c1ccc(Br)cc1 (configuration not stated),-6.7%,-4.8,nt,0.9,2.0,
CCS(=O)(=O)N1CCN(c2ccccc2F)CC1,-5.3%,14.7,20.9,-3.6,-2.0,
O=C(N1CCOCC1)N1CCCN(C(=O)N2CCOCC2)CC1,-3.0%,-8.8,-1.1,-0.3,3.0,
O=C(CNC(=O)/C(=C/c1ccccc1)NC(=O)c1ccc(Br)cc1)OCc1ccccc1,4.09µM*,99.8,1.2,9.8,5.1,
Cc1cccc(-c2cc3nc(C)c(C)c(NCCCn4ccnc4)n3n2)c1,4.54µM*,94.7,nt,-1.1,nt,
